# Assay outcomes: PubChem, Broad Institute
# NOMO-1 viab – STK33 inhibitor candidate reducing NOMO-1 cell viability | NOMO-1 AML viability, CellTiter-Glo luminescence, 72 h | inhibition, % (concentration not given with the values) | hit rate 7.5% among 37,000;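 active = most replicates above 80%; inconclusive = exactly half above 80%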;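 also: wells of about 30 µL received 25 nL stock; 0% = median of vehicle wells and 100% = reference inhibitor level; the first replicate is given; inactives centre near 10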
# Active calls of the source: *; ? = inconclusive. A portion of the library; count on the stated rates, not on these rows.
SMILES,NOMO-1 viab
O=C(O)CCNS(=O)(=O)c1cccc(Cl)c1,14
CC(Oc1ccc(Cl)cc1Cl)C(=O)Nc1ccccc1-c1nc2ccccc2s1 (centres undefined),-13
Cc1ccc2c(=O)c(C(=O)c3ccccc3)coc2c1,130*
CCOC(=O)c1sc2ncn(CC(=O)Nc3ccc(C(C)=O)cc3)c(=O)c2c1C,4
CCOc1ccc(N=C2NC(=O)C(CC(=O)Nc3ccc(OC)cc3)S2)cc1 (centres undefined),3
Cc1ccc(S(=O)(=O)N(C)C[C@@H]2Oc3c(NC(=O)Nc4ccc5c(c4)OCO5)cccc3C(=O)N([C@H](C)CO)C[C@H]2C)cc1,-5
COc1ccc(S(=O)(=O)N(C)C[C@H]2Oc3c(NC(=O)Nc4ccc5c(c4)OCO5)cccc3C(=O)N([C@@H](C)CO)C[C@H]2C)cc1,25
O=C(CSc1nnnn1-c1ccc(F)cc1)c1ccc(O)c(O)c1,71
CCOC(=O)c1cc(-c2ccc(Cl)cc2)[nH]c(=O)c1C#N,-13
COc1ccc(S(=O)(=O)Nc2ccc3c(c2)C(=O)N([C@@H](C)CO)C[C@@H](C)[C@H](CN(C)C(=O)Nc2ccc(C(F)(F)F)cc2)O3)cc1,19
C[C@@H]1CN([C@H](C)CO)C(=O)Cc2cc(NC(=O)CCCCCC(=O)Nc3ccccc3N)ccc2O[C@H]1CN(C)Cc1ccc(C(F)(F)F)cc1,114*
CCCCCCCC(O)C(O)C1CC(OC)=CC(=O)O1 (centres undefined),5
CN(Cc1nc(-c2ccccn2)no1)S(=O)(=O)c1ccc(Br)cc1,19
C[C@H]1CN([C@@H](C)CO)C(=O)Cc2cc(NS(=O)(=O)c3ccc(Cl)cc3)ccc2O[C@H]1CN(C)CC1CCCCC1,135*
CCn1c(SCC(=O)Nc2cc(C)c(Cl)cc2OC)nnc1-c1cccs1,-5
C[C@@H]1CN([C@H](C)CO)C(=O)c2cccc(NC(=O)CCCCCC(=O)Nc3ccccc3N)c2O[C@H]1CN(C)S(C)(=O)=O,8
O=C(O)CCC(=O)Nc1ccc2c(c1)oc1ccccc12,3
C[C@H]1CN([C@@H](C)CO)C(=O)Cc2cc(NC(=O)Cn3cnnn3)ccc2O[C@H]1CN(C)C(=O)Nc1ccc(F)cc1,29
C[C@@H]1CN([C@@H](C)CO)C(=O)c2cc(NC(=O)CCCCCC(=O)Nc3ccccc3N)ccc2O[C@@H]1CN(C)C(=O)Nc1ccc2c(c1)OCO2,5
CSc1nc2cc(C)nn2c(-c2ccc(C(C)(C)C)cc2)c1C#N,11
C[C@H](CO)N1C[C@H](C)[C@H](CN(C)Cc2ccc(C(F)(F)F)cc2)Oc2ccc(NS(=O)(=O)c3cccs3)cc2C1=O,28
COc1cc(CO)cc(Cl)c1OCc1cccc(C(=O)O)c1,19
O=C(CSCc1c(Cl)cccc1Cl)Nc1cccnc1,18
C/C=C/c1ccc(OCCCSc2nc(C)cc(=O)[nH]2)c(OC)c1,0
COc1cc(OC)c2ccc(=O)oc2c1CC(O)C(C)(C)OC (centres undefined),15
CC(C)NC(=O)N(C)C[C@@H]1Oc2ccc(N(C)C)cc2CC(=O)N([C@@H](C)CO)C[C@@H]1C,2
CSc1nsc(SCC(=O)Nc2ccc(C(C)=O)cc2)n1,-20
COc1ccc(OC)c(CCCc2cc(OC)ccc2OC)c1,27
C[C@@H]1CN([C@H](C)CO)C(=O)c2cccc(NC(=O)c3ccncc3)c2O[C@@H]1CN(C)Cc1ccc(C(F)(F)F)cc1,29
C[C@@H]1CN([C@@H](C)CO)C(=O)c2cccc(NC(=O)c3ccncc3)c2O[C@H]1CN(C)Cc1ccc2c(c1)OCO2,26
COc1cccc(NC(=O)CN(c2ccc(C)cc2C)S(C)(=O)=O)c1,28
COc1ccc(S(=O)(=O)N(C)C[C@H]2Oc3ccc(N(C)C)cc3CC(=O)N([C@@H](C)CO)C[C@@H]2C)cc1,-12
CC1CC(=O)C2C(O)(C1)CC(O)C13OC1c1c(O)cccc1C(=O)C23O (centres undefined),68
C[C@H](CO)N1C[C@H](C)[C@H](CN(C)Cc2ccc(Oc3ccccc3)cc2)Oc2c(NC(=O)C3CCCCC3)cccc2C1=O,109*
C[C@@H]1CCCCO[C@H](CN(C)C(=O)c2ccccc2)[C@@H](C)CN([C@H](C)CO)C(=O)c2cc(NC(=O)Nc3ccccc3)ccc2O1,-3
CCOC(=O)c1c(C2COc3ccccc3O2)csc1NC(=S)Nc1ccccc1 (centres undefined),-2
COc1ccccc1NC(=O)Cn1c(C(F)(F)F)nc2ccccc21,41
C[C@H](CO)N1C[C@H](C)[C@H](CN(C)C)Oc2c(NC(=O)Nc3cccc4ccccc34)cccc2C1=O,-24
COc1ccc(CN(C)C[C@@H]2Oc3c(NS(C)(=O)=O)cccc3C(=O)N([C@H](C)CO)C[C@@H]2C)cc1,-6
C[C@H]1CN([C@@H](C)CO)C(=O)c2cc(NC(=O)C3CCCCC3)ccc2O[C@H]1CN(C)S(C)(=O)=O,-8
Cc1cc(C)c(OCC(O)CNC(C)(C)C)c(C)c1 (centres undefined),7
C[C@H](CO)N1C[C@H](C)[C@H](CN(C)CC2CC2)Oc2ccc(NC(=O)C3CC3)cc2CC1=O,6
C[C@H](CO)N1C[C@H](C)[C@@H](CN(C)Cc2ccc(C(=O)O)cc2)Oc2ccc(NC(=O)Cc3ccccc3)cc2C1=O,-2
C[C@H](CO)N1C[C@H](C)[C@H](CN(C)S(=O)(=O)c2ccccc2)Oc2ccc(NC(=O)Nc3ccc4c(c3)OCO4)cc2CC1=O,126*
O=C(CN1C(=O)c2ccccc2S1(=O)=O)Nc1cccc(Br)c1,6
CCN=C(NCC)Nc1ccc(Cl)cc1,3
C[C@@H]1CCCCO[C@H](CN(C)S(=O)(=O)c2cccs2)[C@@H](C)CN([C@H](C)CO)C(=O)c2cc(N(C)C)ccc2O1,-4
COc1ccc(NC(=O)Nc2ccc3c(c2)C(=O)N([C@H](C)CO)C[C@H](C)[C@H](CN(C)C(=O)Nc2ccc(C(F)(F)F)cc2)O3)cc1,20
COc1ccccc1NC(=O)C1c2ccccc2Oc2ccccc21,?
O=C(O)CCNC(=O)Nc1ccccc1,9
# (cont.)
SMILES,NOMO-1 viab
Cc1ccc(-c2nnc(SCC(=O)c3ccccc3)n2-c2ccccc2)cc1Cl,16
Cc1cccc(-c2nnc(SCC(=O)Nc3c(F)cc(F)cc3Br)n2C)c1,5
Cc1cc(C(=O)Nc2cccc3c2O[C@@H](CN(C)Cc2ccc(C(=O)O)cc2)[C@H](C)CN([C@@H](C)CO)C3=O)n(C)n1,0
Oc1ccccc1C=Nc1cccc(N=Cc2ccccc2O)c1,-8
COc1ccc(CN(C)C[C@@H]2Oc3ccc(NS(=O)(=O)c4ccccc4)cc3C(=O)N([C@H](C)CO)C[C@H]2C)cc1,-18
C[C@@H]1CN([C@H](C)CO)C(=O)c2cc(NC(=O)C3CCCCC3)ccc2O[C@H]1CN(C)Cc1ccc(C(=O)O)cc1,-7
C[C@@H]1CN([C@@H](C)CO)C(=O)c2cc(NC(=O)Nc3ccc(F)cc3)ccc2O[C@@H]1CN(C)C(=O)Nc1ccccc1,7
C[C@H](CO)N1C[C@H](C)[C@H](CN(C)S(C)(=O)=O)Oc2ccc(NS(=O)(=O)c3ccc(Cl)cc3)cc2CC1=O,1
C[C@@H]1CN([C@H](C)CO)C(=O)c2cc(NC(=O)CCC(F)(F)F)ccc2O[C@H]1CN(C)Cc1ccc(C(=O)Nc2ccccc2N)cc1,45
COC(=O)c1ccccc1NC(=O)C1=C(C)NC(=S)NC1c1cc(Cl)cc(OC)c1OC(C)C (centres undefined),21
COc1ccc(NC(=O)CC(c2ccccc2)c2ccco2)cc1 (centres undefined),39
CN(c1cccc(NC(=O)c2ccccc2N(C)S(C)(=O)=O)c1)S(C)(=O)=O,4
CCN(CC(=O)Nc1ccccc1)S(=O)(=O)c1ccc(C)cc1,-4
Cc1noc(C)c1S(=O)(=O)Nc1ccc2c(c1)C(=O)N([C@H](C)CO)C[C@H](C)[C@@H](CN(C)C(=O)Nc1ccc3c(c1)OCO3)OCCCC[C@@H](C)O2,10
CC(O)c1nc2ccccc2n1CCCOc1ccccc1 (centres undefined),2
COc1ccc(S(=O)(=O)Nc2cccc3c2O[C@@H](CN(C)S(=O)(=O)c2ccc(OC)cc2)[C@H](C)CN([C@H](C)CO)C3=O)cc1,0
COc1ccc(S(=O)(=O)Nc2ccc3c(c2)CC(=O)N([C@@H](C)CO)C[C@@H](C)[C@@H](CN(C)CC2CC2)O3)cc1,7
COc1ccc(NC(=O)Nc2ccc3c(c2)C(=O)N([C@H](C)CO)C[C@H](C)[C@@H](CN(C)C(=O)Nc2ccc(C(F)(F)F)cc2)OCCCC[C@@H](C)O3)cc1,33
COc1ccc(S(=O)(=O)Nc2cccc3c2O[C@@H](CN(C)S(=O)(=O)c2ccccc2)[C@H](C)CN([C@@H](C)CO)C3=O)cc1,-3
C[C@@H]1CN([C@H](C)CO)C(=O)c2cc(NC(=O)Nc3ccc(C(F)(F)F)cc3)ccc2O[C@H]1CN(C)Cc1ccc(Oc2ccccc2)cc1,58
CCN(CC(=O)Nc1ccc2c(c1)OCCO2)S(=O)(=O)c1ccc2ccccc2c1,-23
COc1cc(NC(=O)COc2ccc(C)c(C)c2)ccc1NC(=O)c1ccccc1Cl,26
O=C(Cn1c(NCCO)nc2ccccc21)c1cccc([N+](=O)[O-])c1,-3
Cc1cc(=O)[nH]c(SC(C)C(=O)Nc2ccc(Cl)cc2)n1 (centres undefined),9
Cc1noc(C)c1S(=O)(=O)Nc1ccc2c(c1)C(=O)N([C@H](C)CO)C[C@@H](C)[C@@H](CN(C)C)O2,45
C[C@H]1CN([C@@H](C)CO)C(=O)Cc2cc(NS(C)(=O)=O)ccc2O[C@H]1CN(C)S(=O)(=O)c1ccc(F)cc1,7
O=C(NCCCn1ccnc1)NC(C(F)(F)F)C(F)(F)F,17
O=C(Cn1cc(C(=O)c2ccco2)c2ccccc21)Nc1ccccc1C(F)(F)F,46
C[C@H]1CN([C@@H](C)CO)C(=O)c2cc(NC(=O)c3ccncc3)ccc2O[C@H]1CN(C)C(=O)Nc1ccc2c(c1)OCO2,10
O=C(/C=N/O)Nc1cc(C(F)(F)F)cc(C(F)(F)F)c1,116*
CC(C)NC(=O)N(C)C[C@@H]1Oc2c(NC(=O)CCCCCC(=O)Nc3ccccc3N)cccc2C(=O)N([C@H](C)CO)C[C@H]1C,7
C[C@H]1CN([C@@H](C)CO)C(=O)c2cc(NS(=O)(=O)c3ccc(F)cc3)ccc2O[C@H]1CN(C)CC1CC1,16
CC(C)NC(=O)Nc1cccc2c1O[C@H](CN(C)C(=O)NC(C)C)[C@@H](C)CN([C@H](C)CO)C2=O,-3
C[C@@H]1CN([C@H](C)CO)C(=O)c2cc(NS(=O)(=O)c3cn(C)cn3)ccc2O[C@H]1CN(C)S(=O)(=O)c1ccc(Cl)cc1,2
C[C@H](CO)N1C[C@H](C)[C@H](CN(C)C(=O)Nc2ccc(C(F)(F)F)cc2)Oc2c(NC(=O)C3CCOCC3)cccc2C1=O,16
COc1ccc(CN(C)C[C@H]2Oc3ccc(NS(=O)(=O)c4ccc(C)cc4)cc3CC(=O)N([C@@H](C)CO)C[C@@H]2C)cc1,47
CNC[C@H]1Oc2ccc(NS(=O)(=O)c3c(C)noc3C)cc2C(=O)N([C@H](C)CO)C[C@@H]1C,8
C[C@H]1CN([C@@H](C)CO)C(=O)c2cc(NC(=O)Nc3ccc(C(F)(F)F)cc3)ccc2O[C@H]1CN(C)S(=O)(=O)c1cn(C)cn1,-14
C[C@@H]1CN([C@@H](C)CO)C(=O)Cc2cc(NC(=O)Cc3cn(C)c4ccccc34)ccc2O[C@@H]1CN(C)S(=O)(=O)c1cccs1,16
COc1ccc(CN(C)C[C@H]2Oc3ccc(NS(=O)(=O)c4ccc(OC)cc4)cc3C(=O)N([C@@H](C)CO)C[C@@H]2C)cc1,-4

# Structures listed so far with a tert-butyl group (two):
SMILES,NOMO-1 viab
CSc1nc2cc(C)nn2c(-c2ccc(C(C)(C)C)cc2)c1C#N,11
Cc1cc(C)c(OCC(O)CNC(C)(C)C)c(C)c1 (centres undefined),7

# Further entries follow:
SMILES,NOMO-1 viab
C[C@H](CO)N1C[C@H](C)[C@H](CN(C)C(=O)Nc2ccccc2)Oc2ccc(NC(=O)Cn3cnnn3)cc2CC1=O,5
Cc1noc(C)c1NC(=O)N(C)C[C@@H]1Oc2ccc(NS(=O)(=O)c3ccc(Cl)cc3)cc2CC(=O)N([C@H](C)CO)C[C@@H]1C,8
C[C@H](CO)N1C[C@H](C)[C@H](CN(C)CC2CCCCC2)Oc2c(NC(=O)c3cnccn3)cccc2C1=O,-15
C[C@H]1CN([C@@H](C)CO)C(=O)Cc2cc(NC(=O)Nc3ccc4c(c3)OCO4)ccc2O[C@H]1CN(C)S(=O)(=O)c1cn(C)cn1,10

# Arranged by length of the SMILES (low to high): part of the list above.
SMILES,NOMO-1 viab
CNC[C@H]1Oc2ccc(NS(=O)(=O)c3c(C)noc3C)cc2C(=O)N([C@H](C)CO)C[C@@H]1C,8
C[C@H](CO)N1C[C@H](C)[C@H](CN(C)CC2CCCCC2)Oc2c(NC(=O)c3cnccn3)cccc2C1=O,-15
C[C@H](CO)N1C[C@H](C)[C@H](CN(C)C(=O)Nc2ccccc2)Oc2ccc(NC(=O)Cn3cnnn3)cc2CC1=O,5
COc1ccc(CN(C)C[C@H]2Oc3ccc(NS(=O)(=O)c4ccc(C)cc4)cc3CC(=O)N([C@@H](C)CO)C[C@@H]2C)cc1,47
Cc1noc(C)c1NC(=O)N(C)C[C@@H]1Oc2ccc(NS(=O)(=O)c3ccc(Cl)cc3)cc2CC(=O)N([C@H](C)CO)C[C@@H]1C,8
C[C@@H]1CN([C@@H](C)CO)C(=O)Cc2cc(NC(=O)Cc3cn(C)c4ccccc34)ccc2O[C@@H]1CN(C)S(=O)(=O)c1cccs1,16
